# KCNQ2 block: KCNQ2 potassium channel inhibitors, primary screen, cell-based, CHO-K1, FluxOR thallium flux, B-score (AID 2156); O88943; 20 min; stronger effect = lower value; only compounds with negative scores are shown here; some inactives read as strong as hits; B-score at 10 µM; 310,000 tested, 1.1% active;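 active = fluorescence ratio B-score at most minus 3 library SDs, with starting brightness B-score within 2 library SDs, cut at about -5.5 in these data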
# Target sequence (O88943 whole entry, looked up): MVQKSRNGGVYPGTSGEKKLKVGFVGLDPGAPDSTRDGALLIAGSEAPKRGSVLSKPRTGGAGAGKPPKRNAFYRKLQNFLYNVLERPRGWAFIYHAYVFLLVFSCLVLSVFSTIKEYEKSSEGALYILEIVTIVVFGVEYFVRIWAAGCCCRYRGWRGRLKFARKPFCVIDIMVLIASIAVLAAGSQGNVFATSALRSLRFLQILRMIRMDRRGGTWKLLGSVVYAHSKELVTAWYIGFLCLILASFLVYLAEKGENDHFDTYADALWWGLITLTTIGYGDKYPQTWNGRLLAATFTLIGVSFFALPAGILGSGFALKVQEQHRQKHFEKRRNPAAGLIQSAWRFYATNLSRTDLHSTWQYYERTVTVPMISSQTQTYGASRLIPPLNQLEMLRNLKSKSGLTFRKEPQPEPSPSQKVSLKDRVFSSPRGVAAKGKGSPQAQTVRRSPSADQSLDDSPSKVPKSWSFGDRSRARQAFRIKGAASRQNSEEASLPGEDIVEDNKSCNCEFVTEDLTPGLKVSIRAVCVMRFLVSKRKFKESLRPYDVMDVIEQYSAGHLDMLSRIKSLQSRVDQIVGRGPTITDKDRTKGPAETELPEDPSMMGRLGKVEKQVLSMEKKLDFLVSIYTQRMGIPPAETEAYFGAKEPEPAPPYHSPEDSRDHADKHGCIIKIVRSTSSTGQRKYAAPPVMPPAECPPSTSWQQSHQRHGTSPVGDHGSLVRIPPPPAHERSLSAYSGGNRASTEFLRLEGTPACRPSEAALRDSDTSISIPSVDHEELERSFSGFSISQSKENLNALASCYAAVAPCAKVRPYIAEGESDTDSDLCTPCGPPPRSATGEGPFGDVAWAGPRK
# KCNQ2 block baseline: recorded beside KCNQ2 block, whose call it bears; B-score; measured here: initial fluorescence intensity artifact check;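 brightness before thallium and not channel activity; 0 = typical well and far values either way flag optical interference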
# Active calls of the source: *; i = inactive. Some of the compounds tested, so the mix of outcomes need not match the whole.
KCNQ2 block,KCNQ2 block baseline,mol
i,1.9,COc1ccc(F)cc1C(=O)C1CCCN(Cc2cn(C)c3ccccc23)C1 (stereo unspecified)
i,-0.88,COC(=O)c1sc(C(C)(C)C)cc1CSc1ccccc1
i,-0.88,CCOC(=O)C1=C(C)C(c2ccc(OC)cc2)NC(=S)N1 (stereo unspecified)
i,1.3,CC1CCc2c(nc3sc4c(c3c2N)CCCC4)C1 (stereo unspecified)
i,0.71,COc1cccc(Cn2c(Oc3cccc(C)c3)nc3c2c(=O)n(C)c(=O)n3C)c1
i,-1.4,Cc1c(C(=O)N2CCc3ccccc3C2)sc2nc(-c3ccccc3)cn12
i,0.54,COc1cc(C)ccc1S(=O)(=O)N1CCCCCC1
i,-0.01,O=C(COc1ccccc1Cl)Nc1cnn(Cc2ccccc2)c1
i,2.6,CC(C)CCN1CCN(CC#Cc2ccccc2)CC1CCO (stereo unspecified)
i,-0.78,COc1ccc(N2C(=O)C(CC(=O)Nc3ccc(F)cc3)N(CCc3ccc(OC)c(OC)c3)C2=O)cc1 (stereo unspecified)

KCNQ2 block,KCNQ2 block baseline,mol
i,-0.32,O=C(NCC1CCCO1)C1c2ccccc2Oc2ccccc21 (stereo unspecified)
i,-1.6,Oc1ccccc1CN1CCCN(Cc2ccccc2O)C1
i,-1.5,COc1ccc(CCN(C(=O)C(F)(F)F)C(C(=O)NC2CCCCC2)c2cccs2)cc1 (stereo unspecified)
i,-0.22,O=C(Cc1ccc(Cl)cc1)NCCCNC(=O)c1cccnc1
i,-0.55,CC(C)(C)NC(=O)COC(=O)c1ccccc1C(=O)c1ccccc1
i,-0.04,CC(=O)Nc1ccc(S(=O)(=O)N(C)C2CCN(C)CC2)cc1
i,1.7,Cc1ccccc1OC(C)C(=O)Nc1ccc2c(c1)OCO2 (stereo unspecified)
i,-0.86,COc1cccc(N2CCN(C(=O)c3cc4c(s3)-c3ccccc3OC4)CC2)c1
i,0.68,COc1cc(OC)cc(C(=O)NCC(=O)OCC(=O)c2cc(OC)ccc2OC)c1
i,2.4,O=C(Nc1ccccc1)C1=C[C@@H](c2ccc(Br)cc2)C[C@@H](OCCCCO)O1

KCNQ2 block,KCNQ2 block baseline,mol
i,1.3,O=C(C[n+]1cccc(NC(=O)c2ccccc2)c1)c1ccc(NC(=O)c2ccccc2)cc1
i,-0.92,CN(Cc1ccccc1)Cc1nc2c(c(=O)n(C)c(=O)n2C)n1Cc1ccc(F)cc1
i,0.16,N=c1n(CCCOc2ccc(Br)cc2)c2ccccc2n1CC(N)=O
i,1.2,COc1ccccc1CCC(=O)Nc1cccc(S(=O)(=O)N2CCOCC2)c1
i,0.02,CC(/C=N/NC(=O)c1cc(-c2ccc(Cl)cc2)nc2ccccc12)=C\c1ccco1
i,2.8,CC(C)Nc1nc(NC(N)=S)nc(NC(C)(C)C)n1
i,0.68,O=C1CN(Cc2ccccc2)C(=NCc2ccco2)S1
-7.6*,-9.2*,CCN(CC)c1ccc(/C=C/c2ccc3ccc(OC)cc3[n+]2CC)cc1
i,-0.01,COc1ccc(COn2c(=O)c(C)[n+]([O-])c3ccccc32)cc1OC
i,0.98,CCO[C@H]1OC(C(=O)Nc2ccccc2)=C[C@@H](c2ccc(Br)cc2)[C@@H]1CCCO

KCNQ2 block,KCNQ2 block baseline,mol
i,1.6,COc1ccc(NC(=O)CSCC(=O)Oc2c(OC)cccc2OC)cc1
i,0.4,Cc1ccc(S(=O)(=O)NCC2CCC(C(=O)NCCCOC(C)C)CC2)cc1 (stereo unspecified)
i,1.2,CCOC(=O)C1CCCN(S(=O)(=O)c2cnc(Cl)c(Br)c2)C1 (stereo unspecified)
i,1.4,CNC(=O)c1cc(Nc2nnc(-c3ccc(O)cc3)c3ccccc23)ccc1OC
i,1.9,CN1CCN(CC(=O)Nc2ccccc2Oc2ccccc2)CC1
i,0.16,O=C(O)c1cccnc1SCc1cn2cc(Br)ccc2n1
i,2.5,CCOC(=O)N1CCN(C(=O)c2cc(-n3cnnc3)ccc2Cl)CC1
i,-0.05,O=C(N/N=C/c1ccc(N2CCOCC2)cc1)C1COc2ccccc2O1 (stereo unspecified)
i,-0.26,Cc1ccc(N2C(=O)SC(Cc3ccccc3)C2=O)cc1 (stereo unspecified)
i,0.05,COc1ccccc1C1NC(=O)NC(C)=C1C(=O)Nc1cccc(C)c1C (stereo unspecified)

KCNQ2 block,KCNQ2 block baseline,mol
i,-1.4,Cc1ccc(CNC(=O)CC2C(=O)Nc3c2c(=O)n(C)c(=O)n3Cc2ccccc2)cc1 (stereo unspecified)
i,1,O=c1nc(N2CCCCC2)nc2n1CCO2
i,-0.57,COc1ccc2[nH]c(=O)c(CN(C(=O)c3ccco3)C(C)C)cc2c1
i,-0.29,COC(=O)c1ccc(COc2ccc(/C=C(\C#N)c3nc4ccccc4[nH]3)cc2OC)o1
i,0.01,Cc1onc(-c2c(Cl)cccc2Cl)c1C(=O)N1CCc2ccccc2C1
i,-1,COC(=O)c1ccc(COc2ccccc2/C=N/NS(=O)(=O)c2ccccc2)cc1
i,0.38,CCn1cc(CN2CCCC(C(=O)c3ccc(-c4ccccc4)c(F)c3)C2)cn1 (stereo unspecified)
i,-0.27,O=C(O)CN1C(=O)NC2(CCCc3ccccc32)C1=O (stereo unspecified)
i,0.8,Cc1cc(C)n(CC(=O)NCc2cc(-c3nn(C)c(=O)c4ccccc34)ccc2C)n1
i,1.6,O=C(N/N=C/c1cc(Br)c(Br)o1)c1cc2ccccc2o1

KCNQ2 block,KCNQ2 block baseline,mol
i,-0.84,Cc1csc(CN(C)C(=O)c2cn(Cc3cccc4ccccc34)nn2)n1
i,0.56,CC(C)Cc1nc(N2CCN(C(=O)c3ccco3)CC2)c(C#N)c2c1CCCC2
i,-1.3,OCCN(Cc1ccccc1)C(=S)NC1CCCCC1
i,1.1,COc1ccc(S(=O)(=O)N2CCCCCC2)cc1C(=O)N(C)CC(=O)Nc1c(Cl)cccc1Cl
i,1.2,COc1ccc(N(C(C)C(=O)NN=C2CCCC2)S(C)(=O)=O)cc1 (stereo unspecified)
i,0.03,O=C(c1ccc2c(c1)N(Cc1ccc(F)cc1)C(=O)c1ccccc1S2(=O)=O)N1CCN(c2ccccn2)CC1
i,-0.68,COc1ccc(-n2c(COc3ccccc3)nnc2SCC(N)=O)cc1
i,4,COc1cc(CNCc2ccccc2C(F)(F)F)cc(OC)c1
i,-0.24,O=C(O)CC(CNC(=O)C1CCCN1C(=O)OCc1ccccc1)c1ccccc1 (stereo unspecified)
i,0.53,O=C(N/C(=C\c1cccc(Br)c1)C(=O)N1CCCCC1)c1ccco1

KCNQ2 block,KCNQ2 block baseline,mol
i,-0.63,Cc1ccc(S(=O)(=O)Cn2nnnc2CN2CCCC3(CCCCC3)C2)cc1
-11*,-0.58*,COc1ccc(-c2n(CC(=O)OC3CC(C)CCC3C(C)C)c3ccccc3[n+]2C)cc1 (stereo unspecified)
i,0.74,CCN1CCN(c2cc(=O)n(-c3cc(Cl)ccc3C)c(=O)[nH]2)CC1
i,0.44,CCOC(=O)C1(Cc2ccccc2)CCCN(C(=O)C=C(C)C)C1 (stereo unspecified)
i,3.3,CC(C)(CO)NS(=O)(=O)c1ccc2c(c1)C(=NO)c1cc(S(=O)(=O)NC(C)(C)CO)ccc1-2
i,-0.01,COC(=O)C(C(=O)Nc1ccc(OC)cc1)C1CCCCCC1 (stereo unspecified)
i,0.81,Clc1ccc2c(N/N=C/c3ccc(Br)cc3)ccnc2c1
i,0.11,c1ccc(OCc2nn3c(-c4ccncc4)nnc3s2)cc1
i,-0.32,COc1ccc(CN(C(=O)Cn2nnc(-c3ccc(C)o3)n2)C(C(=O)NCC2CCCO2)c2ccco2)cc1 (stereo unspecified)
i,-2.8,CCCC(=O)N1CCN(c2ccc(NC(=O)c3cccs3)cc2)CC1

KCNQ2 block,KCNQ2 block baseline,mol
i,1.1,N#C/C(=C\c1cccnc1)C(=O)NC1CCCCC1
i,0.98,CCc1cc(=O)oc2cc(OC(=O)c3ccco3)ccc12
i,0.61,Cc1ccc2nc(N(CCCN(C)C)C(=O)CCc3ccccc3)sc2c1
i,1.6,O=C(CCNC(=O)c1ccc(Br)o1)NCc1ccccc1Cl
i,0.98,CCn1c(=O)c(C(=O)CN2CCCc3ccccc32)c(N)n(Cc2ccccc2)c1=O
i,0.55,CCC(C)C(=O)Nc1nc(-c2ccc3c(c2)NC(=O)CO3)cs1 (stereo unspecified)
i,3.1,CC(=O)Nc1ccc(S(=O)(=O)NNc2ccc([N+](=O)[O-])cc2)cc1
i,2.2,CN(CC(=O)Nc1cccc(F)c1)C(=O)CCc1nc2ccccc2c(=O)[nH]1
i,1.1,NC(=O)c1ccc(Sc2nnc(-c3cccs3)n2CC2CCCO2)c([N+](=O)[O-])c1 (stereo unspecified)
i,0.57,Cc1ccc(C(C(=O)NC2CCCC2)N(C(=O)Cc2cccs2)c2ccc(C)c(C)c2)o1 (stereo unspecified)

KCNQ2 block,KCNQ2 block baseline,mol
i,0.02,COC(=O)c1ccc(NS(=O)(=O)c2cc(C)ccc2OC)cc1
i,0.34,CCc1ccc(C(=O)COC(=O)C(CCSC)NC(=O)c2ccccc2)cc1 (stereo unspecified)
i,-0.38,CCN(C(=O)Cn1cc(C(F)(F)F)ccc1=O)c1c(N)n(Cc2ccccc2)c(=O)[nH]c1=O
i,-0.45,CCCCn1c(CN2CCN(C)CC2)nc2ccccc21
i,-0.83,COC(=O)C1=C(C)N(Cc2ccccc2)C(=NCc2cccc(C(F)(F)F)c2)N[C@H]1c1cccc(F)c1
i,-1.8,Cn1ccnc1C(=O)c1ccc(Cl)c(S(=O)(=O)N2CCOCC2)c1
i,-0.28,Cn1c(N)c(C(=O)COC(=O)COc2ccc(C#N)cc2)c(=O)n(C)c1=O
i,-0.76,O=[N+]([O-])c1ccc(Cl)cc1N1CCCC1
i,-0.25,Cc1ccc(C(=O)N2CCN(S(=O)(=O)c3ccccc3)CC2)s1
i,-0.32,O=[N+]([O-])c1ccc(Cl)c(/C=N/n2c(C3CCCCC3)n[nH]c2=S)c1

KCNQ2 block,KCNQ2 block baseline,mol
i,-0.37,CCN(CC)C(=O)Oc1ccc2ccccc2c1Cl
i,-0.03,COc1ccccc1OC(C)C(=O)Nc1ccc(S(=O)(=O)N2CCN(C)CC2)cc1 (stereo unspecified)
i,-0.27,CS(=O)(=O)Nc1ccccc1C(=O)O
i,-1.6,C=CCn1c(O)c(N=NC(=S)Nc2ccccc2F)c2cc(S(=O)(=O)N3CCOCC3)ccc21
i,-0.28,O=C(NCc1ccccc1Cl)C(=O)NCC1OCCCN1S(=O)(=O)c1cccs1 (stereo unspecified)
i,1.1,CN(C(=O)CSc1nnc2ccccn12)c1c(N)n(Cc2ccccc2)c(=O)[nH]c1=O
i,-3.2,CCOc1cc(C(=O)Nc2ccc(S(=O)(=O)NC3=NCCCCC3)cc2)cc(Br)c1OC
i,2.4,N#Cc1c(NC(=O)CSc2nc3c(c(C(F)(F)F)n2)CCc2ccccc2-3)sc2c1CCCC2
i,-0.12,CCc1cc(=O)[nH]c(SCC(=O)NCC2CCCO2)n1 (stereo unspecified)
i,-1.1,OC1CCN(C(=S)NCCc2ccccc2)CC1

KCNQ2 block,KCNQ2 block baseline,mol
i,-1.2,CC(=O)c1ccc(NC(=O)CN2C(=O)COc3ccc(S(=O)(=O)N4CCCC4)cc32)cc1
i,-0.62,Cc1ccc(C(=O)NC2CCCC(C)C2C)cc1S(=O)(=O)N1CCCCC1 (stereo unspecified)
i,-0.51,COc1ccc(OCc2nnc(SCC(=O)NC3CC3)n2C)cc1
i,1.3,COc1ccc(N2C(=O)/C(=C\c3ccco3)N=C2SCC(=O)N(C(C)C)C(C)C)cc1Cl
i,-0.74,Nc1nnc(CSCc2ccc(Cl)cc2)s1
i,0.14,O=C(N/N=C/c1ccc([N+](=O)[O-])s1)c1cccc(Br)c1
i,0.17,COc1cc(S(=O)(=O)N2CCCCC2)c(OC)cc1Br
i,0.22,COC(=O)c1cc(Cc2ccc(N)c(C(=O)OC)c2)ccc1N
i,1.4,COc1ccc(NC(=O)c2cc([N+](=O)[O-])ccc2N2CCCC2)cc1
i,-2.3,CCC/C(O)=C1\C(=O)CC(C)(C)CC1=Nc1cccc([N+](=O)[O-])c1
i,1.8,O=C(OCc1cc(=O)n2c(n1)sc1ccccc12)c1ccc2c(=O)n3c(nc2c1)CCC3
i,0.33,COc1ccc2cc(C(=O)C3CCCN(Cc4cccc(C)n4)C3)ccc2c1 (stereo unspecified)
i,-0.13,CCCOC(=O)C(C)n1cnc2scc(-c3ccc(C)cc3)c2c1=O (stereo unspecified)

# Compounds above containing a Cl atom, in the order listed:
KCNQ2 block,KCNQ2 block baseline,mol
i,-0.01,O=C(COc1ccccc1Cl)Nc1cnn(Cc2ccccc2)c1
i,-0.22,O=C(Cc1ccc(Cl)cc1)NCCCNC(=O)c1cccnc1
i,0.02,CC(/C=N/NC(=O)c1cc(-c2ccc(Cl)cc2)nc2ccccc12)=C\c1ccco1
i,1.2,CCOC(=O)C1CCCN(S(=O)(=O)c2cnc(Cl)c(Br)c2)C1 (stereo unspecified)
i,2.5,CCOC(=O)N1CCN(C(=O)c2cc(-n3cnnc3)ccc2Cl)CC1
i,0.01,Cc1onc(-c2c(Cl)cccc2Cl)c1C(=O)N1CCc2ccccc2C1
i,1.1,COc1ccc(S(=O)(=O)N2CCCCCC2)cc1C(=O)N(C)CC(=O)Nc1c(Cl)cccc1Cl
i,0.74,CCN1CCN(c2cc(=O)n(-c3cc(Cl)ccc3C)c(=O)[nH]2)CC1
i,0.81,Clc1ccc2c(N/N=C/c3ccc(Br)cc3)ccnc2c1
i,1.6,O=C(CCNC(=O)c1ccc(Br)o1)NCc1ccccc1Cl
i,-1.8,Cn1ccnc1C(=O)c1ccc(Cl)c(S(=O)(=O)N2CCOCC2)c1
i,-0.76,O=[N+]([O-])c1ccc(Cl)cc1N1CCCC1
i,-0.32,O=[N+]([O-])c1ccc(Cl)c(/C=N/n2c(C3CCCCC3)n[nH]c2=S)c1
i,-0.37,CCN(CC)C(=O)Oc1ccc2ccccc2c1Cl
i,-0.28,O=C(NCc1ccccc1Cl)C(=O)NCC1OCCCN1S(=O)(=O)c1cccs1 (stereo unspecified)
i,1.3,COc1ccc(N2C(=O)/C(=C\c3ccco3)N=C2SCC(=O)N(C(C)C)C(C)C)cc1Cl
i,-0.74,Nc1nnc(CSCc2ccc(Cl)cc2)s1

# Source: PubChem BioAssay (Johns Hopkins Ion Channel Center)
